KCNQ2 pot: KCNQ2 (rat) channel potentiation. CHO-K1 KCNQ2, FluxOR thallium flux fluorescence; active compounds read high. 310,000 compounds, 0.54% hits. B-score at 10 µM. O88943;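 active means fluorescence ratio B-score at least 3 SD of library B-scores, with initial fluorescence B-score within 3 SD, cut at about 5.3 in these data; same plate scores as AID 2156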;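 further: B-score of peak minus minimum over baseline fluorescence ratio after K+ and Tl+ stimulus; positive B-score means potentiation of KCNQ2 with more thallium influx and brighter signal; only the inactives scoring about 0 or higher are listed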
KCNQ2 pot baseline: recorded beside KCNQ2 pot, whose call it bears; B-score; compound at 10 µM; measured here: initial fluorescence intensity artifact check;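 brightness before thallium and not channel activity; 0 = typical well and far values either way flag optical interference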
* marks the source's active call; other numbers are inactive results.

cpd	structure	KCNQ2 pot	KCNQ2 pot baseline
1	CCC1=CCN(CCc2c(C)[nH]c3ccccc23)CC1	0.96	1.4
2	CC(C)=CCC12CN3CCN(CC(C3)C1=O)C2	0.88	0
3	c1ccc(C2N3CCCN23)cc1 (stereo not given)	0.82	1.1
4	COc1ccc(/C=C2/C(=O)N(Cc3ccco3)C(=O)N(C(C)C)C2=O)cc1	1.3	0.1
5	COc1ccccc1N1CCN(Cc2ccc3c(c2)OCO3)CC1	1.6	0.73
6	O=[N+]([O-])c1cc(F)c(N2CCCC2)cc1N1CCNCC1	0.71	0.67
7	CC(=O)Nc1ccc(C(=O)OCC(=O)Nc2ccc(Cl)cc2C(=O)c2ccccc2)cc1	0.61	-0.41
8	CCCC(=O)c1cc(CP(=O)(OCC)OCC)oc1C	0.43	0.18
9	Cc1ccc(C2SCC(=O)Nc3c2c(=O)[nH]n3C2CCOC(C)(C)C2)cc1 (stereo not given)	0.18	-0.69
10	CC(C)c1oc(=O)cc2c1[C@@H](O)[C@H]1OC(=O)[C@@]3(C)CC[C@@H](O)[C@@]2(C)C13 (stereo not given in full)	0.79	-3
11	CC(=O)N(C1=NCCCS1)c1ccc(F)cc1	0.54	0.19
12	CNCCc1c[nH]c2ccccc12	0.44	-0.04
13	NS(=O)(=O)c1ccc(N=Cc2c(O)n(-c3ccccc3)c(=O)[nH]c2=O)cc1	0.68	-0.36
14	CCOC(=O)c1c(N)n(CCN2CCOCC2)c2nc3ccccc3nc12	0.95	0.73
15	CCCn1cc(C(=O)O)cn1	0.55	-0.94
16	N=c1ccccn1Cc1ccccc1	0.71	0.53
17	CCOP(=O)(OCC)C1(C(=O)O)CCCC1	0.82	-0.47
18	Cc1cc(/C=C2\C(=O)NC(=O)N(c3ccccc3)C2=O)c(C)n1-c1ccc(C(=O)O)c(Cl)c1	0.33	-1.3
19	CCC(=NCc1cccnc1)c1c(O)n(C2CCCCC2)c(=O)[nH]c1=O	1.7	0.17
20	Cc1ccc2c(c1)C1CN(C)CCC1N2C(=S)Nc1cccnc1 (stereo not given)	0.54	-0.07
21	CCOc1cc(CNC(C)C(O)c2ccccc2)cc(Cl)c1OCC (stereo not given)	0.29	0.67

Single records, from the list above.
`CCC(=NCc1cccnc1)c1c(O)n(C2CCCCC2)c(=O)[nH]c1=O` as listed: KCNQ2 pot = 1.7; KCNQ2 pot baseline = 0.17
`CC(=O)Nc1ccc(C(=O)OCC(=O)Nc2ccc(Cl)cc2C(=O)c2ccccc2)cc1` as listed: KCNQ2 pot = 0.61; KCNQ2 pot baseline = -0.41
`CCCn1cc(C(=O)O)cn1` as listed: KCNQ2 pot = 0.55; KCNQ2 pot baseline = -0.94

Part of the list above, with one line to a screen:
[7] CC(=O)Nc1ccc(C(=O)OCC(=O)Nc2ccc(Cl)cc2C(=O)c2ccccc2)cc1
[20] Cc1ccc2c(c1)C1CN(C)CCC1N2C(=S)Nc1cccnc1 (stereo not given)
compound no.,7,20
KCNQ2 pot,0.61,0.54
KCNQ2 pot baseline,-0.41,-0.07

Values in list order from the entries so far:
KCNQ2 pot, compounds 8 to 19 → 0.43, 0.18, 0.79, 0.54, 0.44, 0.68, 0.95, 0.55, 0.71, 0.82, 0.33, 1.7
KCNQ2 pot baseline, compounds 8 to 19 → 0.18, -0.69, -3, 0.19, -0.04, -0.36, 0.73, -0.94, 0.53, -0.47, -1.3, 0.17

Only part of the results is shown, so the mix of outcomes need not match the whole.
